VACV Venus inh: qHTS for Stage-Specific Inhibitors of Vaccinia Orthopoxvirus: Venus Reporter Primary qHTS. Potency, µM (top dose mostly 36.5 µM), for the others: top-dose activity change, negative = inhibition, most hits filed as inhibitors. 0.46% of 330,000 active. Vaccinia virus Venus reporter expression, fluorescence; active means well fitted inhibition curve with a large enough effect; inconclusive means small, poorly fitted or top-dose-only effect; inactive means no such curve, though single readings can be large or run the other way; tested in A549 cells; also: nearly all actives have a fitted effect of over 30% in size; inactives centre near -10
Vaccinia mCherry: qHTS for Stage-Specific Inhibitors of Vaccinia Orthopoxvirus: mCherry Reporter Primary qHTS; Vaccinia virus mCherry reporter infection, fluorescence; about a quarter of the inactives have no number; 0.63% of 310,000 active; Potency, µM (top dose mostly 36.5 µM), without a hit: at the top dose activity change, negative = inhibition, hits mostly inhibitors; active = well fitted inhibition curve with a large enough effect; inconclusive = small, poorly fitted or top-dose-only effect; inactive = no such curve, though single readings can be large or run the other way; tested in A549 cells; also: nearly all actives have a fitted effect of over 35% in size; inactives centre near -10
Starred values were filed as active, the others as inactive; i = inactive; ? = inconclusive; . = no result given; [ ] = remark or other dose. % is scaled to controls: 0 for no effect and ±100 for the full control effect; potency is read from the fitted curve at half-maximal effect.

Each structure is followed by: VACV Venus inh, Vaccinia mCherry
CCOC(=O)c1cnc(N2CCN(C(=O)OCC)CC2)[nH]c1=O
 : -12%, i
CCOn1c(=O)c[n+]([O-])c2ccccc21
 : 36%[activator], -11%
N#CCC(=O)Nc1ccc(C(=O)OCC(=O)N(C2CCCCC2)C2CCCCC2)cc1
 : 2%, -11%
O=C(COC(=O)c1ccccc1NC(=O)c1ccccc1)c1cccc([N+](=O)[O-])c1
 : -2%, -14%
CCn1c2c(c3cc(OCC(C)C)ccc31)CCCC2=O
 : -10%, i
O=C(N/N=C/c1c(O)n(-c2ccccc2)c(=O)[nH]c1=O)c1ccncc1
 : -4%, -13%
CCOC(=O)c1[nH]c2ccc(OC)cc2c1NS(=O)(=O)c1ccc(OC)cc1OC
 : -22%, -9%
CC(Sc1nnc(-c2ccccc2)c(-c2ccccc2)n1)C(=O)NCC1CCCO1 (stereo not given)
 : -12%, -14%
COCCNC(=O)C1CC2Cn3c(nc4ccccc43)C2N1C (stereo not given)
 : 0%, -2%
CC[C@]12c3[nH]c4cc(CCC(=O)N(C)C)ccc4c3CCN1C(=O)[C@@H](CC(=O)NCc1ccc(OC)c(OC)c1)C[C@@H]2C(=O)N1CCN(C(=O)c2ccco2)CC1
 : 0%, i

A stretch of the results above, for reference:
Each structure is followed by: VACV Venus inh, Vaccinia mCherry
O=C(COC(=O)c1ccccc1NC(=O)c1ccccc1)c1cccc([N+](=O)[O-])c1
 : -2%, -14%
CCn1c2c(c3cc(OCC(C)C)ccc31)CCCC2=O
 : -10%, i
O=C(N/N=C/c1c(O)n(-c2ccccc2)c(=O)[nH]c1=O)c1ccncc1
 : -4%, -13%
CCOC(=O)c1[nH]c2ccc(OC)cc2c1NS(=O)(=O)c1ccc(OC)cc1OC
 : -22%, -9%
CC(Sc1nnc(-c2ccccc2)c(-c2ccccc2)n1)C(=O)NCC1CCCO1 (stereo not given)
 : -12%, -14%
COCCNC(=O)C1CC2Cn3c(nc4ccccc43)C2N1C (stereo not given)
 : 0%, -2%
CC[C@]12c3[nH]c4cc(CCC(=O)N(C)C)ccc4c3CCN1C(=O)[C@@H](CC(=O)NCc1ccc(OC)c(OC)c1)C[C@@H]2C(=O)N1CCN(C(=O)c2ccco2)CC1
 : 0%, i

(further entries)
Each structure is followed by: VACV Venus inh, Vaccinia mCherry
C/C(CC(=O)Nc1ccc(Cl)cc1Cl)=N\NC(=O)C(=O)N1CCCC1
 : -10%, i
Cc1nc2nc(C)c(NS(=O)(=O)c3ccc4c(c3)CCCC4)c(=O)n2[nH]1
 : -10%, -2%
CC(CCOS(N)(=O)=O)c1ccccc1 (stereo not given)
 : -7%, -5%
COc1cc(NC(C)=O)c2ncccc2c1[N+](=O)[O-]
 : -10%, -11%
CCOC(=O)c1cc(-c2ccccc2)n(CC(=O)NCc2ccccc2)c1C
 : -13%, -3%
COc1ccc2ccccc2c1CN1CCc2nnc(CNC(=O)c3cccc(F)c3)n2CC1
 : 0%, i
Cn1c(=O)n(C/C=C/c2ccccc2)c(=O)c2c1nc1n2CCN1c1ccc(F)cc1
 : -6%, -10%
Cc1ccccc1C(=O)c1c[nH]c(C(N)=O)c1
 : -30%, .
CCCN1CCN(CCNC(=O)Nc2ccc(OC)cc2OC)CC1
 : 3%, -5%
COc1cccc(C(=O)NCC(c2ccc(N(C)C)cc2)N2CCc3ccccc32)c1OC (stereo not given)
 : -10%, -5%
O=C(O)c1sc(C(=O)O)c(-c2ccccc2)c1-c1ccccc1
 : -14%, i
CCc1cccc(C)c1NC(=O)Cn1ccn(-c2cccc(OC)c2)c(=O)c1=O
 : -3%, -6%
COc1cc2c3cc1Oc1cc(ccc1O)C[C@@H]1c4c(cc(OC)c(O)c4Oc4cccc(c4)C[C@@H]3N(C)CC2)CC[N+]1(C)C
 : -12%, -16%
CC(=O)Nc1ccc(N=Cc2c(O)n(Cc3ccco3)c(=O)[nH]c2=O)cc1
 : -7%, i
O=C(O)c1ccc(CNC(=O)c2ccc(S(=O)(=O)N3CCCC3)cc2)cc1
 : 1%, -14%
Cc1ncc2c(c1CNC(=O)c1ccc3c(c1)OCO3)CCN(C(=O)c1cnsn1)C2
 : -6%, -10%
O=C1C(=O)N(C2CCN(C(=O)c3ccc(Cl)cc3)CC2)CCN1Cc1ccc(F)cc1
 : 5%, -8%
Cc1ccc(OCc2cc(C(=O)N(C)C3CCCc4ccccc43)no2)cc1C (stereo not given)
 : ?, i
CC1CCCCC1NC(=O)CN1C(=O)CSc2cc(S(=O)(=O)N3CCCCCC3)ccc21 (stereo not given)
 : -27%, -24%
COC(=O)c1ccc(NC(=O)CSc2n[nH]c(-c3ccccc3)n2)cc1
 : 4%, -8%
COC(=O)CSc1ccc(S(=O)(=O)N2CCOCC2)cc1[N+](=O)[O-]
 : 0%, -8%
Cc1ccc(C(=O)CN(CCCC(N)=O)S(=O)(=O)c2ccc([N+](=O)[O-])cc2)cc1
 : -17%, -21%
O=C(COC(=O)C1COc2ccccc2O1)NC(=O)NC1CCCCC1 (stereo not given)
 : -13%, -10%
COc1ccccc1-c1c(C)nn2c(N)c(-c3ccc(Cl)cc3)cnc12
 : -5%, i
O=C(Oc1cccc(/C=N/NC(=O)c2ccccn2)c1)c1ccc([N+](=O)[O-])cc1
 : -3%, -11%
COc1ccc(N2C(=O)CSC23C(=O)N(CC(=O)NCCc2ccccc2)c2ccccc23)cc1 (stereo not given)
 : 0%, -7%
CCN(CC)P1(=O)OC(c2cc(OC)c(OC)c(OC)c2)=Nc2c1c(C)nn2-c1ccccc1 (stereo not given)
 : -2%, -16%
O=C(COC(=O)CCC(=O)c1cccs1)NCc1cccs1
 : 6%, i
COCCCN(C(=O)CC1OC(=O)c2ccccc21)c1c(N)n(Cc2ccccc2)c(=O)[nH]c1=O (stereo not given)
 : -10%, i
COc1ccc(CC(=O)N/N=C/c2ccc(C)s2)cc1
 : -19%, i

Next compounds.
SMILES,VACV Venus inh,Vaccinia mCherry
Cc1ccc(C(=O)N2CCN(c3ccc(NC(=O)c4ccc5c(c4)OCCO5)cc3)CC2)cc1,-8%,-23%
CCOC(=O)[C@]12CCC=C1N(Cc1ccc(Cl)cc1Cl)C(=O)[C@H](CC(=O)NCC1CCCCC1)C2,-13%,14%
O=c1c2sccc2[nH]c(=S)n1-c1ccccc1,-12%,11%
CC(Sc1nnnn1C)C(=O)Nc1ccc(Oc2ccccc2)cc1 (stereo not given),-23%,-25%
C=CCn1c(SCC(=O)N2CCc3ccccc3C2)nc2sc(CC)cc2c1=O,-24%,i
CC1CC2(C)CC(C)C1(COC(=O)Nc1ccccc1)CO2 (stereo not given),8%,2%
O=C(NCCc1ccccc1)c1ccc(CS(=O)(=O)Cc2ccccc2Cl)o1,-17%,-17%
COc1cc2c(cc1OC)C(C(=O)Nc1cc(OC)c(OC)c(OC)c1)C(c1cccnc1)N(C)C2=O (stereo not given),-8%,i
COc1ccc(N(CC(=O)N/N=C/c2ccc(F)cc2)S(=O)(=O)c2ccccc2)cc1,-23%,-31%
CN1OC[C@@H]2CN(C(=O)CCc3ccccc3)[C@H](c3ccc(N4CCCCC4)cc3)C[C@@H]21,-6%,13%
CCC[C@H]1CN(c2ccc(OC)cc2)C(=O)[C@@H]1CC(=O)Nc1ccccc1,-11%,-9%
C=CC[C@@H](CC(=O)N(CCO)Cc1ccccc1)C(=O)N[C@@H](COC(=O)[C@@H](CC=C)Cc1ccc(F)cc1)Cc1c[nH]c2ccccc12,10µM*,?
COC(=O)c1sccc1NC(=O)Nc1cccc(F)c1,-16%,i
CN(C(=O)c1ccc(NC(=O)Cc2ccc([N+](=O)[O-])cc2)cc1)C1CC1,-9%,-13%
Cc1cc(NC(=O)CCN2CCN(C/C=C/c3ccccc3)CC2)ccc1Br,-13%,-24%
CC1CCCCN1S(=O)(=O)c1ccc(S(=O)(=O)N2CCN(c3ccc(F)cc3)CC2)cc1 (stereo not given),-1%,-7%
COc1ccc(C(=O)OCC(=O)N2CCCC2=O)c(OC)c1,-12%,-11%
Cc1cccnc1NC(=O)c1ccc(Br)o1,0%,-8%
O=C(/C=C/c1ccco1)NC(=S)Nc1ccc(N2CCCC2)cc1,-26%,-20%
CCCCCOc1ccc(CSCCNC(=S)Nc2ccccc2)cc1,-5%,-9%
Cc1cc2oc(=O)c(CC(=O)O)c(C)c2c2occ(-c3ccccc3)c12,-1%,-2%
COc1ccc(CN2C(=O)C(CC(=O)NCCCN(C)C)CC(C(=O)N(C(C)C)C(C)C)=C2C)cc1 (stereo not given),7%,-5%
CCCC(=O)Nc1nnc(SCc2cc(=O)c3cc(C)ccc3[nH]2)s1,-8%,-16%
Cc1nc(=O)cc(-c2ccccc2)n1-c1ccccc1,-3%,-3%
O=C(COC(=O)CCc1ccccc1)NC1CCS(=O)(=O)C1 (stereo not given),-15%,i

Compound profiles (already shown). Order of values: VACV Venus inh | Vaccinia mCherry
Listed for CCC[C@H]1CN(c2ccc(OC)cc2)C(=O)[C@@H]1CC(=O)Nc1ccccc1 → -11% | -9%
Listed for O=C(NCCc1ccccc1)c1ccc(CS(=O)(=O)Cc2ccccc2Cl)o1 → -17% | -17%

Next section:
SMILES,VACV Venus inh,Vaccinia mCherry
Cc1sc2ncnc(OCC(=O)N3CCN(S(=O)(=O)c4ccc(Cl)cc4)CC3)c2c1C,-17%,-16%
CCNC(=O)c1c(NC(C)=O)sc2c1CCCC2,-13%,-3%[1.46 µM]
COc1ccc(N(C(=O)c2cccc(C)c2)S(=O)(=O)c2ccc(C)cc2)cc1,-3%,i
O=C(Nc1ccc2c(c1)OCO2)c1cnccn1,-1%,-10%
COC(=O)[C@]1(C)N[C@H](CN(C)C(=O)Nc2ccc(C(F)(F)F)cc2)[C@@H]2C(=O)N(C)C(=O)[C@@H]21,-11%,-16%
CCS(=O)(=O)c1ccc(O)c(NC(=O)Nc2ccccc2OC)c1,-6%,i
Cc1ccc(NC(=O)c2cc(-c3ccccc3)n(CCCN3CCOCC3)c2C)cc1,-10%,i
COc1ccc(NC(=O)COC(=O)/C=C/c2cnc3ccccc3n2)cc1,1%,-7%
CC1CCC/C(=N\NC(=S)NCc2ccccc2)C1 (stereo not given),-6%,-14%
N/C(CC(=O)Nc1ccc(F)c(Cl)c1)=N\OC(=O)c1cccs1,-15%,-15%
CCOC(=O)c1c(C)nc2c(C)cccn12,-6%,-13%
Cc1ccc(S(=O)(=O)N(CC(O)CN2C(=O)NC(C)(C)C2=O)c2cccc(C)c2)cc1 (stereo not given),-5%,5%
COC(=O)[C@]12CCCCC=C1N(CCc1ccc(OC)c(OC)c1)C(=O)[C@H](CC(=O)NCc1ccc(C)o1)C2,-4%,-1%
O=C(Cn1c(=O)n(-c2cccc(Cl)c2)c(=O)n1CC(=O)N1CCCCC1)N1CCCCC1,1%,.
COc1cc(-c2noc(-c3ccc(N4CCOCC4)c([N+](=O)[O-])c3)n2)cc(OC)c1OC,-12%,0%
CCOc1ccc(C(=O)Nc2cc(-c3nc4ccccc4[nH]3)ccc2Cl)cc1[N+](=O)[O-],?,-22%
O=C(O)c1ccc(Cl)cc1Nc1nc2cc(Cl)ccc2o1,2%,-1%
O=C(CSc1nccn(-c2ccc(Br)cc2)c1=O)Nc1ccccc1F,-11%,-6%
Cc1ccc2nc3c(cc2c1)c(NC(=O)c1cccnc1)nn3C,-13%,.
COc1ccccc1CC(=O)Nc1ccc(S(=O)(=O)N2CCOCC2)cc1,-18%,-11%
CCOC(=O)/C(C(=O)Nc1ccccc1Cl)=C1/NC(C)(C)Cc2ccccc21,-1%,-14%
O=C(Nc1cccc2ccccc12)/C(=C\c1cccc([N+](=O)[O-])c1)NC(=O)c1cccs1,-8%,i
O=C(Nc1ccc(C(=O)O)cc1)/C(=C\c1ccc2c(c1)OCO2)NC(=O)c1ccccc1,-7%,-8%
S=C(NCCC(c1ccccc1)c1ccccc1)Nc1cccc(Cl)c1,?,-6%[1.46 µM]
CCCCCCCCN1C(=O)[C@H](CC(=O)N2CCN(C(=O)c3ccco3)CC2)C[C@@]2(C(=O)OCC)CCCC=C12,-24%,-14%
CN(C)c1ccc(CNc2nc(-c3ccco3)nn2S(=O)(=O)c2ccc(Cl)cc2)cc1,7%,-19%
CC1(/[N+]([O-])=C/c2ccccc2F)CCCCC1=O (stereo not given),-6%,-12%
CCc1ccc(S(=O)(=O)c2cn(C)c3cc(N4CCCC4)c(F)cc3c2=O)cc1,?,?
COc1ccc(C(=O)NCCS(=O)(=O)NCc2cccnc2)cc1,-11%,0%
CCC1C(=O)CC(c2ccccc2)NC1c1ccccc1 (stereo not given),-9%,-11%
Cc1ccccc1CN(C)C[C@@H]1OCc2cnnn2CCCC(=O)N([C@H](C)CO)C[C@H]1C,-8%,-18%
O=C(COc1ccc(Br)cc1F)N1CCN(c2ncccn2)CC1,-1%,-1%
COc1cc(/C=N/Nc2nc(C)cc(C)n2)ccc1OC(=O)c1ccco1,-9%,-3%
O=S(=O)(c1ccc(F)cc1)N1CN(Cc2ccco2)c2nc3ccccc3nc21,12%,1%
Cc1ncc2c(c1CNC(=O)c1cncs1)CCN(C(=O)c1ccc(C(C)(C)C)cc1)C2,?,i
NC(=O)Cn1cc(/C=N\NS(=O)(=O)c2ccc(Cl)cc2)c2ccccc21,-19%,?
O=C(COC(=O)c1ncc(Cl)c(Cl)c1Cl)NC1CCS(=O)(=O)C1 (stereo not given),-8%,?
CSc1ccccc1NC(=O)CSc1nnnn1-c1ccccc1SC,-11%,-10%

Bioassay records from PubChem.

The order is random. About 0.87% of those tested had a hit in this group.
